HNF4A DNA FP: change in binding of human HNF4 alpha to DNA; P41235; HNF4a-FITC DNA binding, fluorescence polarization, 1 h; activity change, % at 10 µM; 0.3% of 360,000 active; AID 1224865; in the data active = activity change above about 30%, passing the limit was not always enough;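 also: controls were the assay level and a saturating level of protein; the project sought stronger binding though the title names inhibitors; some compounds called inactive have numbers as strong as hits; positive values seem to mean higher polarization but the record does not say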
ALR inh: blocks human ALR sulfhydryl oxidase activity. P55789. purified ALR, DTT oxidation, H2O2 HRP-luminol luminescence. inhibition, % (concentration not given with the values). 3.8% of 290,000 active. AID 485317;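 active = mean and each replicate at 75% or more; inconclusive = only one of the two met; inactive = neither met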;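 also: stock transfer was 7.5 nL into about 7.5 µL; 0% = neutral wells and 100% = wells with inactivated enzyme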
Target sequence (P55789 whole entry, looked up): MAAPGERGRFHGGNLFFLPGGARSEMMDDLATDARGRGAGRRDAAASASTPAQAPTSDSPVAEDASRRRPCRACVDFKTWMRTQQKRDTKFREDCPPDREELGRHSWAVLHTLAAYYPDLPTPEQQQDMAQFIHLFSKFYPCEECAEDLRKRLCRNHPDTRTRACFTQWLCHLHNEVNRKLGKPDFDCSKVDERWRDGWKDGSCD
Vif A3G: HIV-1 Vif–A3G interaction blockers – biochemical, TR-FRET, GST-Vif 1-94, biotin-A3G peptide, dose response retest, primary screen (AID 1117319); TR-FRET GST-Vif / biotin-A3G peptide binding; higher % means a stronger effect; test concentration not given here; strong numbers were not always called active; inhibition, %; hits with a dose series show IC50 in µM; 0.57% of 260,000 active;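 active = above the screen mean plus three standard deviations and confirmed in dose response; inconclusive = results disagree or hit not tested in dose response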;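 also: Vif residues 1-94 fused to GST binding biotinylated APOBEC3G peptide 110-148; 0% = full assay without inhibitor and 100% = GST in place of GST-Vif; retest series ran down from 100 µM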
AF4-AF9 inh: blocks AF4 peptide binding to human AF9 | AlphaScreen, biotin-AF4 peptide binding to FLAG-AF9 | inhibition, % at 10 µM | 0.47% of 350,000 active;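 active = every replicate reaching a set inhibition limit, whatever the replicate mean, cut at about 25% in these data; inconclusive = mean inhibition reaches that limit but some replicates miss it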;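 also: 0% = plate neutral control median and 100% = total signal loss; the record names both 10 and 1 µM as test concentration; the first replicate is given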
Target sequence (P42568 whole entry, looked up): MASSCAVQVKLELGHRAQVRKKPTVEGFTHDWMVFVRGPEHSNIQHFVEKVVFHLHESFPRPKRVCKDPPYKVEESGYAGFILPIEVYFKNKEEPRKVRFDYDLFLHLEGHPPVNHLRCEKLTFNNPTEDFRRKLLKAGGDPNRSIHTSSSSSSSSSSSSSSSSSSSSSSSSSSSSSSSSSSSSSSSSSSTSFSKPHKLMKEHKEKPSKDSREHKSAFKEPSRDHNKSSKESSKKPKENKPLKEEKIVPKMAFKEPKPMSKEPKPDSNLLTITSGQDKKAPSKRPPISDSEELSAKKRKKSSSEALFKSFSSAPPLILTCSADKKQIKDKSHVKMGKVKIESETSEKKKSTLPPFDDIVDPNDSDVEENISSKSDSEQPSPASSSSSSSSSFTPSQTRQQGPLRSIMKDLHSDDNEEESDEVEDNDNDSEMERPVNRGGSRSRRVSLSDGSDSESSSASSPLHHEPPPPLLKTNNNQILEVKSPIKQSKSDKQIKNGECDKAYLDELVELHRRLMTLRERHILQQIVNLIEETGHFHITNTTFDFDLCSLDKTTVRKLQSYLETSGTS
rRNA inh HTS: inhibitors of bacterial rRNA selective over humanized ribosomes | 1.6% of 350,000 active | E. coli WT GFP vs humanized-ribosome RFP mutants, fluorescence, 24 h; active compounds read low; DMSO median 0, no signal -100 | GFP signal change (wild-type ribosome), % (no concentration beside the values);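 active = significant combined selectivity score with lowered wild-type GFP, culture density cut under 30%, mutant RFP and density less affected; inactive = any of these conditions unmet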; also: one replicate is shown; some compounds called inactive have numbers as strong as hits
Ecoli growth: blocks Escherichia coli growth; OD600, 23 h; active compounds read low; OD600 absorbance (test concentration not listed); 0.21% of 330,000 active; AID 1053175;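 active = OD600 absorbance below the run mean of sample wells minus 3.6 SD, in any replicate, cut at about 0.56 in these data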;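 also: stock transfer was 300 nL into about 60 µL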
FGF22 binding: shifts melting point of recombinant human FGF22; 1.5% of 340,000 active; calls only at 9.99 µM; recombinant FGF22 thermal shift, SYPRO orange fluorescence; percent of sucrose octasulfate shift, DMSO zero;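 active = melting point raised past a set limit in the mean and every replicate; inconclusive = no clear call; three in four hits are not shown here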
Target sequence (Q9HCT0 whole entry, looked up): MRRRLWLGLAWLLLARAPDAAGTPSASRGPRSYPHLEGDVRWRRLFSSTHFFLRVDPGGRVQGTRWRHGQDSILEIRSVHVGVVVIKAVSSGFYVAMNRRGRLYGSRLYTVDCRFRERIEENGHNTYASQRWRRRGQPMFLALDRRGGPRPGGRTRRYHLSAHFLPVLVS
rRNA inh HTS OD600: recorded beside rRNA inh HTS, whose call it bears; OD600 change, %; measured here: OD600 growth;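 optical density of the mix in the first replicate; 0 = DMSO median and -100 = no signal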
rRNA inh HTS RFP: second read-out of rRNA inh HTS, no call of its own (marks repeat the call); RFP signal change, %; measured here: RFP humanized mutant strains;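 first replicate; 0 = DMSO median and -100 = no signal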
Numbers without * were called inactive; i = inactive; ? = inconclusive; nt = not tested or not shown; & = joins results of further samples.

no.	SMILES	HNF4A DNA FP	ALR inh	Vif A3G	AF4-AF9 inh	rRNA inh HTS
1	COc1ccc2[nH]c(=O)c(CN(C(=O)C3CCCO3)c3ccc(C)c(C)c3)cc2c1 (configuration not stated)	-6.8	-14	-18%	-0.1	-2
2	Cc1cccc(NC(=O)CN(CC2CCCO2)C(=O)c2cc3ccccc3o2)c1C (configuration not stated)	7.2	nt	6%	-7.8	-7
3	COc1ccc(OC)c(NC(=O)COC(=O)c2ccc(S(=O)(=O)N3CCOCC3)cc2)c1	-2.0	-39	2%&2%	nt	nt
4	C[C@@H]1CCCCO[C@@H](CN(C)C(=O)Nc2ccccc2)[C@H](C)CN([C@@H](C)CO)C(=O)c2cc(NC(=O)Nc3ccccc3)ccc2O1	nt	nt	nt	0.0	-1
5	CCn1c(SCC(=O)N2CC(C)OC(C)C2)nc2c([nH]c3ccccc32)c1=O (configuration not stated)	1.5	-20	-2%	-2.7	0
6	N=C1/C(=C\c2ccc(-c3cccc(C(=O)O)c3)o2)C(=O)N=C2SC=C(c3ccccc3)N12	-6.5	6	?	-0.9	-30
7	COC(=O)[C@@]12C[C@@H](CC(=O)NCc3cccc4ccccc34)C(=O)N(CCc3ccc(OC)c(OC)c3)C1=CCC(C)(C)C2	-3.0	nt	nt	2.3	10
8	COC(=O)CSc1nc(C)c(C(C)=O)cc1C#N	-2.7	nt	-1%	nt	nt
9	CCCCC(CC)c1nnc(NC(=O)c2cccs2)s1 (configuration not stated)	5.2	nt	nt	0.4	-54
10	Cc1ccccc1-c1ccc2c(c1)O[C@H](CN(C)C(=O)Nc1ccc(C(F)(F)F)cc1)[C@H](C)CN([C@@H](C)CO)S2(=O)=O	nt	nt	nt	-0.4	5

no.	rRNA inh HTS OD600	rRNA inh HTS RFP	Ecoli growth	FGF22 binding
1	9	1.6	0.7	i
2	-1	-2.3	0.65	i
3	nt	nt	0.72	nt
4	0	0.9	nt	i
5	10	-3.7	0.7	i
6	-15	17	0.65	i
7	8	0.9	nt	i
8	nt	nt	0.69	nt
9	-77	-15	0.65	nt
10	14	0.9	nt	i

(next part)
no.	SMILES	HNF4A DNA FP	ALR inh	Vif A3G	AF4-AF9 inh	rRNA inh HTS
11	CN(C)S(=O)(=O)n1cnc(C(CCO)c2ncn(S(=O)(=O)N(C)C)c2CCCO)c1 (configuration not stated)	21	4	nt	2.8	8
12	COc1ccc(-c2csc3ncnc(N4CCN(c5ccccc5OC)CC4)c23)cc1	-2.7	-5	nt	3.4	-2
13	CCOC(=O)N1CCC(NC(=O)c2cc(S(=O)(=O)NCCc3ccccc3)ccc2F)CC1	1.4	-3	14%	-0.1	-10
14	O=C(NCC[C@@H]1CC[C@H](NS(=O)(=O)c2ccc(F)cc2)[C@H](CO)O1)Nc1ccc(Cl)cc1	nt	nt	nt	8.4	-10
15	CC1(C)CC(=O)C(N=Nc2ccc(S(=O)(=O)N3CCOCC3)cc2)=C(O)C1	-1.4	8	5%	-4.9	7
16	CCCCN1C(=O)c2cccc3cc(O)cc(c23)C1=O	-5.7	-3	nt	1.1	nt
17	COc1cccc(CNC(=O)[C@H]2[C@H](CO)[C@H]3Cn4c(ccc(-c5cncnc5)c4=O)[C@@H]2N3C(C)=O)c1	nt	nt	nt	-1.6	2
18	Cc1ccc(C(=O)Nc2sc(C(=O)N(C)C)c(C)c2C#N)cc1	-4.3	4	10%	nt	nt
19	C[C@@H]1CN([C@H](C)CO)C(=O)Cc2cc(NS(C)(=O)=O)ccc2O[C@H]1CN(C)C(=O)Nc1ccc(F)cc1	nt	nt	nt	-1.5	-2
20	O=C(Nc1ccc(O)c2c(=O)cc(-c3ccccc3Cl)oc12)c1cccs1	-7.6	-1	nt	nt	5

no.	rRNA inh HTS OD600	rRNA inh HTS RFP	Ecoli growth	FGF22 binding
11	-2	-4.5	0.7	i
12	5	5.8	0.54	i
13	-8	-8.8	0.7	i
14	-28	5.9	nt	i
15	3	-2.9	0.67	i
16	nt	nt	0.61	i
17	4	-4.8	nt	i
18	nt	nt	0.63	nt
19	-2	0.4	nt	i
20	6	0.5	0.64	i

Next section:
no.	SMILES	HNF4A DNA FP	ALR inh	Vif A3G	AF4-AF9 inh	rRNA inh HTS
21	CCCc1[nH]nc2c1C1(C(=O)N(C(C)C)c3ccccc31)C(C#N)=C(N)O2 (configuration not stated)	-1.9	0	5%	-0.8	4
22	CC(C)c1cn(CC[C@@H]2CC[C@@H](NC(=O)C3CCC3)[C@@H](CO)O2)nn1	nt	nt	nt	-0.7	2
23	COC(=O)/C(=C/Nc1ccccc1)[N+](=O)[O-]	0.7	-6	4%	nt	nt
24	CC(=O)c1c(C)nc2sc3c(=N)n(N)cnc3c2c1-c1ccc(Cl)cc1	3.2	-1	nt	9.0	-20
25	Cc1ccc(N2C(=O)CSC2c2cccnc2)c(Cl)c1 (configuration not stated)	-0.7	nt	33%	8.4	2
26	COc1ccc(NC(=O)N[C@@H]2CC[C@@H](CCNC(=O)Cc3ccncc3)O[C@H]2CO)cc1	nt	nt	nt	1.7	2
27	CCc1ccc(C2CC(=O)N(c3ccc(F)cc3)C3=C2C(=O)OC3)cc1 (configuration not stated)	-1.7	nt	8%	-4.0	10
28	CCn1nc(NC(=O)CC(C)C)c2cc3ccc(C)cc3nc21	1.4	nt	-2%	-3.3	8
29	COc1ccccc1Oc1ncnc2sccc12	4.6	-7	-3%	2.1	4
30	COc1ccc(CN2C(=O)c3ccccc3C2=O)cc1C(=O)N(C)CC(=O)Nc1ccc(F)cc1	3.3	3	-4%	5.7	-1

no.	rRNA inh HTS OD600	rRNA inh HTS RFP	Ecoli growth	FGF22 binding
21	-6	-0.5	0.68	i
22	7	0.3	nt	i
23	nt	nt	0.67	nt
24	-44	3.2	0.63	i
25	4	0.1	0.69	i
26	3	-2.5	nt	i
27	-1	1.7	0.74	i
28	13	-1.4	0.68	i
29	8	-0.4	0.71	i
30	4	0.0	0.71	i

(next part)
no.	SMILES	HNF4A DNA FP	ALR inh	Vif A3G	AF4-AF9 inh	rRNA inh HTS
31	C[C@@H]1CN([C@H](C)CO)C(=O)Cc2cc(NS(=O)(=O)c3cn(C)cn3)ccc2O[C@@H]1CN(C)S(=O)(=O)c1ccc(Cl)cc1	nt	nt	nt	-3.5	0
32	CN1C(=O)C(=O)/C(=C(/O)c2ccc(Br)cc2)C1c1ccc(Cl)cc1 (configuration not stated)	-2.9	23	nt	-1.0	-35
33	COc1ccc(/C=N/Nc2nc3ccccc3[nH]2)c(OC)c1OC	-7.1	98*	-1%	8.4	-27*
34	COc1ccc(Nc2nc3c(c(=O)n(C)c(=O)n3C)n2CCO)cc1	2.8	4	6%	nt	nt
35	CNc1ncnc2c1ncn2[C@H]1CN(Cc2ccc(Cl)cc2)C[C@@H](CO)O1	-3.4	nt	nt	2.0	nt
36	C[C@H](O)C#Cc1ccc2c(c1)O[C@H](CN(C)C(=O)c1ccccc1)[C@@H](C)CN([C@@H](C)CO)S2(=O)=O	nt	nt	nt	-1.4	-1
37	Cc1ccc(C)c(N2CN(Cc3ccco3)CNC2=S)c1	-2.0	-2	-10%	nt	nt
38	O=c1c2oc3ccccc3c2[nH]c(=S)n1-c1ccccc1	-1.6	92*	nt	nt	nt
39	c1ccc(-c2nnc(CSc3nc4ccccc4[nH]3)o2)cc1	0.4	-14	13%	nt	nt
40	CS(=O)(=O)Nc1ccc2c(c1)[C@H]1C[C@H](CC(=O)NC3CCCCC3)O[C@@H](CO)[C@H]1O2	nt	nt	nt	0.8	2

no.	rRNA inh HTS OD600	rRNA inh HTS RFP	Ecoli growth	FGF22 binding
31	6	-0.3	nt	i
32	-35	-6.1	0.71	i
33	7.1*	-9.8*	nt	i
34	nt	nt	0.7	nt
35	nt	nt	nt	i
36	-1	-1.4	nt	i
37	nt	nt	0.7	nt
38	nt	nt	0.64	nt
39	nt	nt	0.66	nt
40	5	-2.4	nt	i

Next entries.
no.	SMILES	HNF4A DNA FP	ALR inh	Vif A3G	AF4-AF9 inh	rRNA inh HTS
41	C[C@H](CO)N1C[C@H](C)[C@@H](CN(C)S(=O)(=O)c2ccc(F)cc2)Oc2c(NS(=O)(=O)c3ccccc3)cccc2C1=O	2.4	nt	8%	-5.9&0.4	-4&-7
42	COc1cc2ncnc(NCc3ccc(C)o3)c2cc1OC	-2.0	nt	nt	3.8	-22
43	COc1ccc(NC(=S)N2CCCC2)cc1OC	0.2	-21	-1%	-17	1
44	CNS(=O)(=O)c1ccc(C)cc1	-1.9	-8	18%	-4.3	nt
45	CCCC#Cc1cnc2c(c1)C(=O)N([C@H](C)CO)C[C@H](C)[C@H](CN(C)C(=O)C1CCOCC1)O2	nt	nt	nt	-3.1	0
46	CCOC(=O)NC(=O)/C(C#N)=N\Nc1cccc(Cl)c1	-1.8	12	?	-5.0	-5
47	COc1cccc(N2CCN(C3CC(=O)N(c4ccc(F)c(Cl)c4)C3=O)CC2)c1 (configuration not stated)	-1.9	32	-8%&8%	nt	nt
48	CC(C)C(NC(N)=O)C(=O)NC1CCCCC1 (configuration not stated)	nt	3	>100µM*	nt	nt
49	C[C@H](CO)N1C[C@H](C)[C@H](CN(C)C(=O)CN(C)C)Oc2ncc(C#Cc3ccccc3)cc2C1=O	nt	nt	nt	12	4
50	COc1ccc(N(C(=O)Cc2cccs2)C2C=CS(=O)(=O)C2)cc1 (configuration not stated)	2.2	-3	12%	-0.4	9
51	O=C(O)CNC(=O)c1ccccc1NC(=O)c1ccco1	0.7	12	17%	nt	nt
52	OC[C@@H]1CN(Cc2ccc(Cl)cc2)C[C@H](n2cnc3c(N4CCCC4)ncnc32)O1	-5.6	nt	nt	-1.0	-3

no.	rRNA inh HTS OD600	rRNA inh HTS RFP	Ecoli growth	FGF22 binding
41	-2&-3	0.6&2.8	0.73	i
42	-24	-4.0	0.7	nt
43	-6	-3.8	0.6	i
44	nt	nt	0.73	nt
45	4	-5.3	nt	i
46	-2	-1.3	nt	i
47	nt	nt	0.74	nt
48	nt	nt	0.68	nt
49	5	-1.2	nt	i
50	10	6.0	0.71	i
51	nt	nt	0.69	nt
52	-9	1.6	nt	i

Grouped by structure, those above containing a thiophene ring, fused or not (7)
no.	SMILES	HNF4A DNA FP	ALR inh	Vif A3G	AF4-AF9 inh	rRNA inh HTS
9	CCCCC(CC)c1nnc(NC(=O)c2cccs2)s1 (configuration not stated)	5.2	nt	nt	0.4	-54
12	COc1ccc(-c2csc3ncnc(N4CCN(c5ccccc5OC)CC4)c23)cc1	-2.7	-5	nt	3.4	-2
18	Cc1ccc(C(=O)Nc2sc(C(=O)N(C)C)c(C)c2C#N)cc1	-4.3	4	10%	nt	nt
20	O=C(Nc1ccc(O)c2c(=O)cc(-c3ccccc3Cl)oc12)c1cccs1	-7.6	-1	nt	nt	5
24	CC(=O)c1c(C)nc2sc3c(=N)n(N)cnc3c2c1-c1ccc(Cl)cc1	3.2	-1	nt	9.0	-20
29	COc1ccccc1Oc1ncnc2sccc12	4.6	-7	-3%	2.1	4
50	COc1ccc(N(C(=O)Cc2cccs2)C2C=CS(=O)(=O)C2)cc1 (configuration not stated)	2.2	-3	12%	-0.4	9

no.	rRNA inh HTS OD600	rRNA inh HTS RFP	Ecoli growth	FGF22 binding
9	-77	-15	0.65	nt
12	5	5.8	0.54	i
18	nt	nt	0.63	nt
20	6	0.5	0.64	i
24	-44	3.2	0.63	i
29	8	-0.4	0.71	i
50	10	6.0	0.71	i

These rows are one share of the data. The share of hits here may be higher or lower than overall.
